Screens deposited in PubChem by National Center for Advancing Translational Sciences (NCATS).
AmpC nodet inh = AmpC beta-lactamase inhibition, detergent-free assay; P00811; AmpC nitrocefin hydrolysis, absorbance 480 nm, no detergent; potencies from a single point are estimates; Potency, µM (highest dose often 28.7 µM), without a hit: at the highest dose activity change, negative = inhibition; 71,000 tested, 1.8% active; AID 585; active = falling curve, for most hits resting on a single point; inconclusive = weak or doubtful change; inactive = flat or rising curve; also: % of control where 0% means no effect; about half of the hits show no inhibition at the top dose; a quarter of the inactives give rising signals
Target sequence (P00811 whole entry, looked up): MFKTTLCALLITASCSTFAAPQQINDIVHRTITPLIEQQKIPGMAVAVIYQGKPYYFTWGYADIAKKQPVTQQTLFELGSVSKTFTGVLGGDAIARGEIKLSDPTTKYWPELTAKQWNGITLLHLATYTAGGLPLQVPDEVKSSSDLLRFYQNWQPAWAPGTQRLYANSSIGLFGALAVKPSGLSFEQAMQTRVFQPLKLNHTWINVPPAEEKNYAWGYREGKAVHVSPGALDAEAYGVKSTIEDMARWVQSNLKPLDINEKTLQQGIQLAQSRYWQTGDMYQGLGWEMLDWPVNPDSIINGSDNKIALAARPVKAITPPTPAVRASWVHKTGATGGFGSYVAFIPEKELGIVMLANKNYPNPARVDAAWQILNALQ
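Enzyme, pH 7.0 phosphate. Compound titrations were pre-incubated with AmpC for 15 min at room temperature before nitrocefin (stock 800 uM) addition; product formation was recorded at 480 nm every 20 s for 4 min.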
Active calls of the source: *; u = inconclusive; [ ] = another dose, or the depositor's remark. Potency is read from the fitted curve at half-maximal effect.

SMILES	AmpC nodet inh
CN(C)Cc1cn(CCC(=O)O)c2ccccc12	-9.2%
CCOC(=O)C1CCN(C(=O)c2cccc(NC(=O)C(CC)CC)c2)CC1	-9.9%
CC1CCN(Cc2nc3c(c(=O)n(C)c(=O)n3C)n2CCCc2ccccc2)CC1	128.7%
Cc1cc(C)n(-c2ccc(C(=O)OCC(=O)c3ccc(Br)s3)cc2)n1	12.6µM*[single pt active]
CC[C@]1(O)C[C@@H]2CN(CCc3c([nH]c4ccccc34)[C@](C(=O)OC)(c3cc4c(cc3OC)N(C=O)[C@H]3[C@@](O)(C(=O)OC)[C@H](C(=O)OC)[C@@]5(CC)C=CCN6CC[C@]43[C@H]65)C2)C1	162.7%
O=C(NCCCN1CCN(c2cccc(Cl)c2)CC1)c1ccc(N2CCCC2=O)cc1	94.7%
Cc1cc2cc(CNC(=O)CCC(=O)O)ccc2[nH]1	8.8%
CN(C)CC(=O)Nc1cc(C(F)(F)F)ccc1Cl	1.0%
COc1ccc(O)c(C(=O)CC(=O)c2ccccc2)c1	28.5%
N#Cc1nc(Cc2cccc3ccccc23)oc1NCc1ccco1	-10.3%
O=C(CC1Oc2ccccc2NC1=O)NCc1ccccc1 (stereo unspecified)	-3.0%
CC(=O)O[C@@H](C)C[N+](C)(C)C	-5.3%[12.8 µM]
COC(=O)c1ccc(NC(=O)CN2CCN(c3ccccc3)CC2)cc1	35.0%
Cc1oc(-c2cccc(Cl)c2)nc1CN1CCC(C(=O)NCC2CCCO2)CC1 (stereo unspecified)	50.6%
O=C(CSc1n[nH]c(C2CCCC2)n1)NC1CCCC1	1.5%
CC1(C)Cc2c(sc3ncnc(N)c23)CO1	1.4%
COc1ccc(Nc2ccc3c(c2)=NC2(CCCCC2)[N+]=3[O-])cc1	36.4%
CCCC1(C(=O)OCC)NC(c2cc(OC)c(OC)c(OC)c2)C2C(=O)N(CC)C(=O)C21 (stereo unspecified)	65.1%
CCCn1c(SCc2cc(=O)[nH]c3ccccc23)nc2c1c(=O)n(C)c(=O)n2C	37.2%
O=c1[nH]c(=O)n(Cc2ccco2)c2c1C(C(F)(F)F)(C(F)(F)F)N=C(C1CCCCC1)N2	-3.2%
CC(C)(C)C(=O)Nc1ccc(-c2cn3ccsc3n2)cc1	-8.0%
Cc1ccc(S(=O)(=O)N2CCC(C(=O)N3CCC[C@H]3C(=O)NC3CCS(=O)(=O)C3)CC2)cc1 (stereo partly specified)	4.2%
CCOC(=O)c1cnc2cc3c(cn2c1=O)CCCC3	-4.8%
Cc1nc(-n2nnc3ccccc32)c2c3c(sc2n1)CCCC3	35.5%
Cc1nc(N)c(C#N)c(-c2ccccc2)c1C	-5.0%
O=C(NCSC1=NCCS1)c1ccccc1	5.5%
O=C(CSc1nnc(Cc2cc(=O)[nH]c(=O)[nH]2)n1-c1ccc(F)cc1)N1CCCCC1	3.98µM*[single pt active]
CCCCCCNC(=O)c1c(O)c2cccc3c2n(c1=O)CCC3	-1.6%
CC(C)Oc1ccccc1-c1nc(SCC(=O)O)n[nH]1	-9.5%
O=C(NCc1ccco1)C1CN(S(=O)(=O)c2ccccc2)CCN1S(=O)(=O)c1ccccc1 (stereo unspecified)	-5.4%
Cc1nc2ccccc2c(=O)n1/N=C/c1cn(-c2ccccc2)nc1-c1cccs1	70.3%
COc1ccc(CCN2CC(C#N)=C3c4cc(OC)c(OC)cc4CCN3C2)cc1OC	138.7%
CCCOC(=O)C1[C@H]2C(=O)N(CCCOC)C[C@]23C=C[C@H]1O3 (stereo partly specified)	-9.9%
Cc1cccc2cc(C#N)c(SCC(=O)N3CCC(C)CC3)nc12	29.2%
CC1CC(C)CN(CCCNC(=O)CNC(=O)Cn2ccc3ccccc3c2=O)C1 (stereo unspecified)	-11.8%
CCN(CC)C(=O)CCC(=O)Nc1ccc(C(=O)OC)cc1	17.0%
CCOC(=O)c1ccc(Nc2c(CC)c(C)nc3ncnn23)cc1	11.6%
C1=CN2CCC1C(c1ccccc1)C2 (stereo unspecified)	1.4%
Cc1cc2nc(-c3ccc(NC(=O)C(C)C)cc3)oc2cc1C	5.5%
CCOC(=O)C1CCCN(Cc2nc(N)nc(Nc3ccc(Cl)cc3)n2)C1 (stereo unspecified)	46.4%
Cc1cc(Oc2ccc(-c3ccccc3)cc2)n2ncnc2n1	67.5%
COC(=O)c1ccc(CCc2cc(O)ccc2O)cc1	-3.1%[5.75 µM]
O=C(CNC(=O)c1ccco1)NCC(=O)OCc1ccccc1Br	5.0%
CCOc1cc2c(cc1OCC)C(c1ccc(O)c(OC)c1)NCC2 (stereo unspecified)	49.3%
CCN1C(=O)CC(C(=O)Nc2ccc(F)cc2)SC1=Nc1cccc(OC)c1 (stereo unspecified)	33.0%

A second format for some results above:
Structure: COc1ccc(O)c(C(=O)CC(=O)c2ccccc2)c1
- AmpC nodet inh: 28.5%

Structure: N#Cc1nc(Cc2cccc3ccccc23)oc1NCc1ccco1
- AmpC nodet inh: -10.3%

Structure: O=C(CC1Oc2ccccc2NC1=O)NCc1ccccc1 (stereo unspecified)
- AmpC nodet inh: -3.0%

Structure: CC(=O)O[C@@H](C)C[N+](C)(C)C
- AmpC nodet inh: -5.3%[12.8 µM]

(cont.)
SMILES	AmpC nodet inh
Cc1ccc(SCc2cc(=O)n3[nH]cnc3n2)cc1	2.8%
CC(=O)c1cccc(NC(=O)Nc2ccc3c(c2)N(C)C(=O)CS3)c1	-17.7%
CN1CCN(c2cc(=O)n(C3CCCCC3)c(=O)[nH]2)CC1	-0.8%
CCOC(=O)C1CCN(C(=O)C2CCCCC2)CC1	-0.4%
Cc1cc(C)cc(OC(=O)N2CCOCC2)c1	6.6%
CCC(=O)c1ccccc1OCCSc1nc(C)cc(=O)[nH]1	-7.7%
CCC1Oc2ccc(C)cc2N(CC(=O)NCCN2CCCCCC2)C1=O (stereo unspecified)	20.7%
COc1ccc(N2CCN(c3nc4ccccc4n3CC(=O)c3ccccc3)CC2)cc1	68.1%
CCN1C(=O)Cc2cc(S(=O)(=O)N3CCOCC3)ccc21	7.8%
O=C(CCN1C(=O)C2C3C=CC(C3)C2C1=O)Nc1nccs1 (stereo unspecified)	-2.0%
Cc1c(Cl)c(S(N)(=O)=O)cc2c1=NC=NS=2(=O)O	-5.1%[5.75 µM]
COC(=O)[C@H]1[C@@H]2C[C@H]3c4[nH]c5ccccc5c4CCN3C[C@@H]2CC[C@@H]1O	31.8%
O=C(CCC(=O)NC1CC1)Nc1nnc(C2CCCCC2)s1	-5.9%
CC1(Cc2ccc3c(c2)OCO3)NC(=O)NC1=O (stereo unspecified)	4.7%
COc1ccc(C2C3=C(CC(C)(C)CC3=O)Oc3ncn4nc(-c5cccnc5)nc4c32)cc1OC (stereo unspecified)	111.3%

Next part, starting with the last 4 of the part before.
SMILES	AmpC nodet inh
COC(=O)[C@H]1[C@@H]2C[C@H]3c4[nH]c5ccccc5c4CCN3C[C@@H]2CC[C@@H]1O	31.8%
O=C(CCC(=O)NC1CC1)Nc1nnc(C2CCCCC2)s1	-5.9%
CC1(Cc2ccc3c(c2)OCO3)NC(=O)NC1=O (stereo unspecified)	4.7%
COc1ccc(C2C3=C(CC(C)(C)CC3=O)Oc3ncn4nc(-c5cccnc5)nc4c32)cc1OC (stereo unspecified)	111.3%
Cn1c(=O)n(C)c2cc(NC(=O)c3cc4ccccc4o3)ccc21	85.4%
Cn1c(CNc2ccc(Cl)cc2)nc2ccccc21	-3.5%
COc1ccc(S(=O)(=O)N2Cc3ccccc3CC2C(=O)Nc2ccc(O)cc2)cc1OC (stereo unspecified)	-1.3%
CCCN(CCC)S(=O)(=O)c1ccc(C(=O)Nc2nnc(CSC)o2)cc1	-10.5%
CCCCOc1ccc(C(=O)Nc2cccc(C)n2)cc1	3.1%
Cc1ccc(NC(=O)c2ccc(S(=O)(=O)N3CCCC3)cc2)cc1	3.4%
CCC(=O)N1CCN=C1SCc1ccccc1	13.6%
O=C(Nc1cccc(O)c1)C1CCCN1C(=O)OCc1ccccc1 (stereo unspecified)	7.6%
Cn1cccc1C(=O)N1CCC[C@@]2(CCN(C(c3ccccc3)c3ccccc3)C2)C1	122.8%
C[C@]1(OC(=O)/C=C\c2ccccc2)C[C@@H](O)[C@@]2(O)C=CO[C@@H](O[C@H]3O[C@@H](CO)[C@@H](O)[C@@H](O)[C@@H]3O)[C@H]21	13.0%[12.8 µM]
CC1(C)CC(=O)c2cc(C(=O)N3CCN(CCO)CC3)c(=O)n(-c3ccc(Cl)cc3)c2C1	16.6%
O=C(NCCc1ccccc1F)[C@@H]1CSC2c3ccccc3C(=O)N21 (stereo partly specified)	-5.6%
O=C(NCC1CCCO1)c1cccc(N2C(=O)C3C4C=CC(C4)C3C2=O)c1 (stereo unspecified)	-3.1%
CCn1c(=O)cc(SCC(=O)N2CCN(c3ccccn3)CC2)c2ccccc21	u
CCCCOc1cc(C(=O)NCCN(CC)CC)c2ccccc2n1	25.7%[12.8 µM]
Cn1cccc1Cc1nnc(SCC(=O)Nc2ccc(F)cc2)n1CCc1ccccc1	64.1%
O=C1CN(C(=O)c2ccccn2)c2ccccc2N1	-3.8%
COCC(C)n1c(C)cc(C(=O)CN2C(=O)NC3(CCCCC3C)C2=O)c1C (stereo unspecified)	35.8%
Clc1ccc(SCCn2cncn2)cc1	4.7%
NCCOC[C@H](N)C(=O)O	5.3%[5.75 µM]
CC(=O)NCCNc1ncnc2ccc(-c3ccoc3)cc12	27.8%
CCOC(=O)c1sc(NCc2ccco2)c(-c2nc3ccccc3s2)c1N	-13.9%
COC(=O)c1ccccc1NC(=O)Nc1ccc(C(=O)N2CCCC2)cc1	3.6%
COc1ccc(CCNC(=O)CN(c2ccc(OC)c(OC)c2)S(C)(=O)=O)cc1OC	6.8%
Cn1c(=O)c(-c2ccccc2)nc2cnc(Nc3ccccc3)nc21	15.1%
Cc1ccc(Cc2c(C)nc3c(C(=O)O)cnn3c2C)cc1	11.8%
CC(C)Cn1c(CN2CCCCC2C)nc2c1c(=O)n(C)c(=O)n2C (stereo unspecified)	15.0%
CC1=C(C#N)C(c2ccoc2)C(C(=O)OCc2ccccc2)=C(N)S1 (stereo unspecified)	-4.5%
O=C(c1cc(C(F)(F)F)cc(C(F)(F)F)c1)N1CCC2(CC1)CN(c1ccncc1)C2	32.7%
C=CC[C@@H](C(=O)O)c1ccccc1	-3.8%[5.75 µM]
O=C(Cn1cc2c(n1)CCCCC2)NCc1cccs1	2.9%
CC(=O)OCC1=C(C(=O)O)N2C(=O)[C@@H](NC(=O)Cc3cccs3)[C@@H]2SC1	-8.5%[12.8 µM]
CSc1nnc2c3cc(F)ccc3n(Cc3ccccc3)c2n1	-18.4%
COc1ccccc1NC(=O)N1CCN(c2ccccn2)CC1	3.98µM*[single pt active]
COc1ccc(C2CC3CC(c4ccccc4)N2O3)cc1 (stereo unspecified)	-6.2%
CCOC(=O)c1c(NC(=O)CNCCO)sc(C)c1C	38.5%
O=c1c2ccccc2nc(SCc2cc(F)cc3c2OCOC3)n1Cc1ccco1	-3.4%
COC(=O)CCn1nnc(-c2ccc(C(C)C)cc2)n1	105.0%
COc1cccc(-c2noc(CCC(=O)NC3CCCCC3)n2)c1	40.3%
CCOC(=O)c1sc(C)c(C(=O)NCCCN2CCOCC2)c1N	-4.6%
CCOC(=O)CNC(=O)Cn1cnc2c(nnn2-c2ccc(F)cc2)c1=O	12.6%
COc1cccc(NC2=NCC(=O)N2Cc2cccs2)c1	5.2%
CCOc1ccccc1NC(=O)N1CCCC1C(=O)Nc1nnc(CC)s1 (stereo unspecified)	17.8%
Cc1cc2nc3c(=O)[nH]c(=O)nc-3n(CC(O)C(O)C(O)CO)c2cc1C (stereo unspecified)	3.8%
CCn1nc(NC(=O)c2ccccn2)c2cc3cccc(C)c3nc21	35.5%
CCn1c(SCC(=O)NC2CCCCC2)nc2c(c1=O)SC(C)C2 (stereo unspecified)	8.3%
COc1ccc(N(C(C)C(=O)NCc2ccco2)S(C)(=O)=O)cc1 (stereo unspecified)	31.1%
Cc1cc(SCC(=O)c2ccc(Br)cc2)cc(C)[o+]1	3.3%[5.75 µM]
COc1cc(C)c(C(C)C)cc1S(=O)(=O)NCCCn1ccnc1	36.9%
COC(=O)c1ccc(C(=O)OC)c(NC(=O)CSc2nnc(-c3ccccc3Cl)o2)c1	45.9%
N#Cc1c(SCC(=O)N2CCCCC2)nsc1SCC(=O)N1CCCCC1	30.8%
N#CCCn1c2ccccc2c2nc3ccccc3nc21	13.1%
Cc1ccc(CNC(=O)CSc2nc(C)cc(C)c2C#N)cc1	-6.7%
COc1ccc(OC)c(S(=O)(=O)N(C)CC(=O)N2CCc3ccccc3C2)c1	61.8%
CCOc1ccc(NC(=O)CN2CCN(CC(=O)Nc3ccc(F)c(F)c3)CC2)cc1	85.7%
CCn1c(SCc2cccc(C(=O)O)c2)nnc1-c1ccccc1	11.6%
CC1CCCN(S(=O)(=O)c2cc(Cl)ccc2Cl)C1 (stereo unspecified)	5.0%
Cc1cccc(CNc2ncnc3ccc(-c4cccc(C#N)c4)cc23)c1	-5.2%
COCC(C)NC(=O)c1ccccc1OC(C)=O (stereo unspecified)	-4.7%
CS(=O)(=O)N1CCC[C@@]2(CCN(c3ccccc3)C2)C1	63.7%
Continuation:
SMILES	AmpC nodet inh
CCOc1ccc(-c2cn(S(=O)(=O)c3cccc4nsnc34)nc2N)cc1	-6.9%
CCCCn1c(NC(=O)c2ccco2)c(C(=O)OCC)c2nc3ccccc3nc21	57.1%
Cc1ccc(-c2nnc3ccc(SCC(=O)Nc4cc(C)on4)nn23)cc1	13.4%
Cc1occc1-c1nnc(SCC(=O)NCc2cccs2)n1-c1ccc(F)cc1	30.3%
c1ccc(-n2ncc3c(N4CCN(c5ccccn5)CC4)nc(N4CCCCCC4)nc32)cc1	-8.0%
CCN(CC)CCN1C(=O)C(=O)/C(=C(/O)c2ccncc2)C1c1ccccc1F (stereo unspecified)	-4.2%

Only part of the results is shown; rates above refer to the full screens.
